KCNQ2 enhance: potentiators of rat KCNQ2 potassium channel; Potassium voltage-gated channel subfamily KQT member 2 (Rattus norvegicus), O88943; CHO-K1 KCNQ2, FluxOR thallium flux fluorescence; active compounds read high; B-score at 10 µM; 310,000 compounds, 0.54% hits; AID 2239, 2010;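 active means fluorescence ratio B-score at least 3 SD of library B-scores, with initial fluorescence B-score within 3 SD, cut at about 5.3 in these data; same plate scores as AID 2156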;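 further: B-score of peak minus minimum over baseline fluorescence ratio after K+ and Tl+ stimulus; positive B-score means potentiation of KCNQ2 with more thallium influx and brighter signal; only the inactives scoring about 0 or higher are listed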
Target sequence (O88943 whole entry, looked up): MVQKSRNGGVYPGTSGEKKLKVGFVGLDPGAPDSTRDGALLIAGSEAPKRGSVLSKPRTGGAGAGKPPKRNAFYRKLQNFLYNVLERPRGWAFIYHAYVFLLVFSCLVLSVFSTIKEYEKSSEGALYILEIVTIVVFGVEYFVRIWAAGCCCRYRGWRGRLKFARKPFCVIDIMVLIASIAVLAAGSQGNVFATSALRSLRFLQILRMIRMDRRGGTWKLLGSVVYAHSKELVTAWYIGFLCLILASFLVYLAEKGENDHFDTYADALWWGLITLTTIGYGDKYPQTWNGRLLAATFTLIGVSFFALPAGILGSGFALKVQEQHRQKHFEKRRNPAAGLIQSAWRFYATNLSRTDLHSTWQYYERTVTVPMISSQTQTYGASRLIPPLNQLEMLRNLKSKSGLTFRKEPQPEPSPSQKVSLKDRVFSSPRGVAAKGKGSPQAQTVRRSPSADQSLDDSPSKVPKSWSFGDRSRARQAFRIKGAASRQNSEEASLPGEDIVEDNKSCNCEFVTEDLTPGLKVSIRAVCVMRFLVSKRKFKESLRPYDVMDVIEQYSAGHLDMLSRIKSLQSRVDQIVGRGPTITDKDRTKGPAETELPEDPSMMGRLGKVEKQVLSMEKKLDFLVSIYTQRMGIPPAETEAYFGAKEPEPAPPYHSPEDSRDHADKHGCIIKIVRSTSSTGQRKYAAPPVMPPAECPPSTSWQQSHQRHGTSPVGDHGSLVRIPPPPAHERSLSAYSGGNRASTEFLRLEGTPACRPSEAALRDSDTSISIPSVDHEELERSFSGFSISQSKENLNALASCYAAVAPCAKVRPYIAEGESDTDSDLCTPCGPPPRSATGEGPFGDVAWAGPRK
KCNQ2 enhance baseline: second read-out of KCNQ2 enhance, no call of its own (marks repeat the call); B-score; compound at 10 µM; measured here: initial fluorescence intensity artifact check;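 brightness before thallium and not channel activity; 0 = typical well and far values either way flag optical interference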
The depositor's hits bear a star. Only part of the results is shown. The share of hits here may be higher or lower than overall.

What do the screens show for `Cc1nc2c(N=Nc3ccccc3F)c(N)nn2c(N)c1C#N`?
KCNQ2 enhance: 0.17; KCNQ2 enhance baseline: 0.11

Results for CC(C)(c1ccccc1)c1ccc(OCCCNCCO)cc1 ?
KCNQ2 enhance: 1; KCNQ2 enhance baseline: 1.8

How did COc1cc(/C=N/NS(=O)(=O)c2ccc(C)c([N+](=O)[O-])c2)ccc1O do in these assays?
KCNQ2 enhance: 0.26; KCNQ2 enhance baseline: 0.21

What do the screens show for `CCCCN1CCNC[C@@H]1Cc1ccccc1`?
KCNQ2 enhance: 1.6; KCNQ2 enhance baseline: 0.07

What do the screens show for `CN1C(=O)C2C3c4ccccc4C(c4ccccc43)[C@@H]2C1=O` (stereo partly specified)?
KCNQ2 enhance: 0.58; KCNQ2 enhance baseline: -0.17

Results for COc1ccc(Nc2nc(C)cc(=O)[nH]2)c(OC)c1 ?
KCNQ2 enhance: 0.06; KCNQ2 enhance baseline: 1

Results for COc1ccc(C(=O)/C=C2/Sc3cc4c(cc3N2C)OCO4)cc1 ?
KCNQ2 enhance: 0.72; KCNQ2 enhance baseline: -1.2

What do the screens show for `CCOC(=O)C1C(c2ccc(OC)c(OC)c2)c2c([nH][nH]c2=O)CC1(C)O` (stereo unspecified)?
KCNQ2 enhance: 1.4; KCNQ2 enhance baseline: -0.56

Results for NC(=O)C(c1ccccn1)c1ncc(C(F)(F)F)cc1Cl (stereo unspecified) ?
KCNQ2 enhance: 0.77; KCNQ2 enhance baseline: 0.85

What do the screens show for `COc1ccccc1NS(=O)(=O)c1cn(C)cn1`?
KCNQ2 enhance: 0.8; KCNQ2 enhance baseline: -1.5

Results for OCc1ccc(N=Nc2ccccc2)cc1 ?
KCNQ2 enhance: 0.13; KCNQ2 enhance baseline: 0.36

How did Cc1ncc(CO)c2c1Oc1nc(-c3ccccc3)nc(SCC(=O)N3CCOCC3)c1C2 do in these assays?
KCNQ2 enhance: 0.23; KCNQ2 enhance baseline: -0.33

Results for COc1ccc(C(=O)Nc2ccc(O)cc2C(=O)O)cc1 ?
KCNQ2 enhance: 0.38; KCNQ2 enhance baseline: 0.29

What do the screens show for `Fc1ccc(/C=N/n2c(C3CCCCC3)n[nH]c2=S)cc1`?
KCNQ2 enhance: 2.3; KCNQ2 enhance baseline: -0.12

What do the screens show for `Cc1cccc(NC(=O)C(C)OC(=O)c2ccccc2NS(=O)(=O)c2cc(C)c(C)c([N+](=O)[O-])c2)c1` (stereo unspecified)?
KCNQ2 enhance: 0.01; KCNQ2 enhance baseline: 0.22

What do the screens show for `O=C1C2C3CCC(O3)C2C(=O)N1c1cccc(O)c1` (stereo unspecified)?
KCNQ2 enhance: 0.13; KCNQ2 enhance baseline: -1.4

How did Oc1c(C=Nc2cccc3nsnc23)ccc2ccccc12 do in these assays?
KCNQ2 enhance: 3.4; KCNQ2 enhance baseline: 0.01

What do the screens show for `O=C(N/C=N/OCc1ccc(Cl)cc1Cl)NOCc1c(Cl)cccc1Cl`?
KCNQ2 enhance: 0.81; KCNQ2 enhance baseline: 0.17

How did O=C(O)CCCN1C(=O)/C(=C/C=C/c2ccco2)SC1=S do in these assays?
KCNQ2 enhance: 0.45; KCNQ2 enhance baseline: 1.5

Results for Cc1ccnc(NS(=O)(=O)c2ccc(NC(=O)c3oc4ccccc4c3C)cc2)n1 ?
KCNQ2 enhance: 1.7; KCNQ2 enhance baseline: -0.13

Some of these compounds in order of molar mass, rising.
How did O=C(O)CCCN1C(=O)/C(=C/C=C/c2ccco2)SC1=S do in these assays?
KCNQ2 enhance: 0.45; KCNQ2 enhance baseline: 1.5

How did Cc1ncc(CO)c2c1Oc1nc(-c3ccccc3)nc(SCC(=O)N3CCOCC3)c1C2 do in these assays?
KCNQ2 enhance: 0.23; KCNQ2 enhance baseline: -0.33

What do the screens show for `Cc1cccc(NC(=O)C(C)OC(=O)c2ccccc2NS(=O)(=O)c2cc(C)c(C)c([N+](=O)[O-])c2)c1` (stereo unspecified)?
KCNQ2 enhance: 0.01; KCNQ2 enhance baseline: 0.22

Other records
Results for O=C1C(Cc2ccc(O)cc2)NC(=S)N1Cc1ccccc1 (stereo unspecified) ?
KCNQ2 enhance: 0.83; KCNQ2 enhance baseline: 0.75

Results for CC1=C(C(N)=O)C(c2ccccc2)n2nc(-c3cccc(C)c3)nc2N1 (stereo unspecified) ?
KCNQ2 enhance: 0.15; KCNQ2 enhance baseline: 1.5

Results for O=C(N/N=C/c1ccc(O)c(O)c1)c1ccc(CSc2cccc3cccnc23)cc1 ?
KCNQ2 enhance: 1.1; KCNQ2 enhance baseline: 0.01

Results for CC(C)(C)C1CCC(OCC(O)CN2CCCC2)CC1 (stereo unspecified) ?
KCNQ2 enhance: 1.8; KCNQ2 enhance baseline: 0.73

What do the screens show for `CCCN1CCN(C(=O)c2nn(-c3ccc(OC)cc3)c(=O)c3c2c2ccccc2n3C)CC1`?
KCNQ2 enhance: 1.9; KCNQ2 enhance baseline: -0.03

How did CSc1nnc(Cn2c(=O)sc3ccccc32)n1-c1ccccc1 do in these assays?
KCNQ2 enhance: 0.06; KCNQ2 enhance baseline: -0.12

Results for COc1ccc(C(OCC(O)CNCCc2ccc(S(N)(=O)=O)cc2)c2ccc(OC)cc2)cc1 (stereo unspecified) ?
KCNQ2 enhance: 0.06; KCNQ2 enhance baseline: -0.19

What do the screens show for `Cc1c(NS(=O)(=O)c2ccc(Cl)c(C(=O)OCC(=O)NCc3ccco3)c2)c(=O)n(-c2ccccc2)n1C`?
KCNQ2 enhance: 0.5; KCNQ2 enhance baseline: -1.6

How did COc1cc(OC)c(C(=O)OCC(=O)NCCC2=CCCCC2)cc1OC do in these assays?
KCNQ2 enhance: 0.02; KCNQ2 enhance baseline: 0.57

What do the screens show for `O=C(Cn1cc(C(F)(F)F)cc(Cl)c1=O)NCCc1ccccc1`?
KCNQ2 enhance: 0.93; KCNQ2 enhance baseline: -2.8

Results for CC(=O)Nc1ccc(S(=O)(=O)N(C)CC(=O)Nc2ccccc2N2CCOCC2)cc1 ?
KCNQ2 enhance: 0.68; KCNQ2 enhance baseline: -0.02

What do the screens show for `O=C(Nc1ccccc1)N1CCC(C(=O)N2CCCC(C(F)(F)F)C2)CC1` (stereo unspecified)?
KCNQ2 enhance: 0.95; KCNQ2 enhance baseline: 0.02

What do the screens show for `CC(C)c1nc2n[nH]c(N)c2c2c1CSC(C)(C)C2`?
KCNQ2 enhance: 5; KCNQ2 enhance baseline: -0.8

What do the screens show for `O=C1NC(c2ccccc2)=C(c2nc3ccccc3s2)C(c2ccccc2)N1` (stereo unspecified)?
KCNQ2 enhance: 5.9*; KCNQ2 enhance baseline: 1.3*

How did COc1ccc(CN2CCNC(=O)C2CC(=O)N2CCCCO2)cc1OC (stereo unspecified) do in these assays?
KCNQ2 enhance: 1.9; KCNQ2 enhance baseline: -0.44

Results for CCCn1c(N)c(N(CCOC)C(=O)c2ccc(F)cc2)c(=O)[nH]c1=O ?
KCNQ2 enhance: 0.22; KCNQ2 enhance baseline: -1.9

What do the screens show for `CC(C)[C@H](NC(=O)NCCc1ccc(F)cc1)C(=O)O`?
KCNQ2 enhance: 0.03; KCNQ2 enhance baseline: -2.4

Results for Cc1ccccc1CN1CCN(CC(=O)NCc2ccccc2)CC1 ?
KCNQ2 enhance: 0.21; KCNQ2 enhance baseline: 0.86

What do the screens show for `C=CCOc1c(Br)cc(/C=C2/C(=O)ON=C2C)cc1OC`?
KCNQ2 enhance: 0.02; KCNQ2 enhance baseline: -0.71

How did CCCOc1ccc(/C=C2/C(=O)ON=C2C)cc1OCC do in these assays?
KCNQ2 enhance: 1.2; KCNQ2 enhance baseline: 1.2

Results for CCOc1ccccc1C1CC(=O)NC(SCC)=C1C#N (stereo unspecified) ?
KCNQ2 enhance: 1.5; KCNQ2 enhance baseline: 0.03

What do the screens show for `Cc1ccc(NC(=O)/C(C#N)=N/Nc2ccc(C(=O)O)cc2)c(C)c1`?
KCNQ2 enhance: 1.7; KCNQ2 enhance baseline: -1.9

Results for COC(=O)c1ncn(C2OC(COC(C)=O)C(OC(C)=O)C2OC(C)=O)n1 (stereo unspecified) ?
KCNQ2 enhance: 1.3; KCNQ2 enhance baseline: -0.16

Results for CN(C)NC(=O)C(NC(=O)c1ccc(N)cc1)C12CC3CC(CC(C3)C1)C2 (stereo unspecified) ?
KCNQ2 enhance: 0.7; KCNQ2 enhance baseline: -3.8

Results for O=C(Nc1ncc2c(n1)-c1ccccc1CC2)C1CC1 ?
KCNQ2 enhance: 1.4; KCNQ2 enhance baseline: -1.1

What do the screens show for `COc1ccc(S(=O)(=O)N(CCN2CCOCC2)Cc2cc(OC)ccc2OC)cc1`?
KCNQ2 enhance: 3.9; KCNQ2 enhance baseline: -0.01

How did COc1cc(/C=N\NC(=O)CNC(=O)c2cccc([N+](=O)[O-])c2)ccc1O do in these assays?
KCNQ2 enhance: 1.1; KCNQ2 enhance baseline: -0.08

How did C#C[C@]1(O)CC[C@H]2[C@@H]3CCC4=Cc5oncc5C[C@]4(C)[C@H]3CC[C@@]21C do in these assays?
KCNQ2 enhance: 0.29; KCNQ2 enhance baseline: 0.2

Results for CCCCNC(=O)c1onc(CSc2nc3ccccc3[nH]2)c1C(=O)NCCCC ?
KCNQ2 enhance: 0.13; KCNQ2 enhance baseline: -2.5

How did O=C1CC(C(=O)Nc2ccccc2)C2(CCCC2)O1 (stereo unspecified) do in these assays?
KCNQ2 enhance: 1.5; KCNQ2 enhance baseline: 0.1

Results for CCC1(C)Cc2c(C#N)c(N)sc(=S)c2CO1 (stereo unspecified) ?
KCNQ2 enhance: 1.7; KCNQ2 enhance baseline: -0.99

Results for O=C(CN1C(=O)CS/C1=C\c1nc(-c2ccc(Cl)cc2)cs1)Nc1cccnc1Cl ?
KCNQ2 enhance: 0.29; KCNQ2 enhance baseline: 0.57

What do the screens show for `N#Cc1cccnc1N1CCN(C(=O)COCC(=O)O)CC1`?
KCNQ2 enhance: 0.94; KCNQ2 enhance baseline: 0.53

Results for Cc1ccc(C(=O)Nc2cccnc2N2CCN(C)CC2)cc1 ?
KCNQ2 enhance: 1.6; KCNQ2 enhance baseline: -0.23

Results for Cc1cc(N2C(=O)C3C4C=CC(C4)C3C2=O)no1 (stereo unspecified) ?
KCNQ2 enhance: 0.02; KCNQ2 enhance baseline: -0.15

What do the screens show for `Oc1ccc(/C=N/Nc2nc(-c3ccccc3F)nc3ccccc23)c(O)c1`?
KCNQ2 enhance: 1.2; KCNQ2 enhance baseline: -0.88

How did O=C(O)CSc1nnc(COc2cccc3ccccc23)o1 do in these assays?
KCNQ2 enhance: 0.07; KCNQ2 enhance baseline: 0.33

What do the screens show for `Cn1c(=O)c([N+](=O)[O-])c(N2CCSCC2)c2ccccc21`?
KCNQ2 enhance: 0.23; KCNQ2 enhance baseline: 2.5

Results for O=Cc1ccc(N2CCCC2)c([N+](=O)[O-])c1 ?
KCNQ2 enhance: 0.61; KCNQ2 enhance baseline: 0.66

What do the screens show for `COc1cc(/C(C)=N/NC(=O)CN2CCN(S(=O)(=O)c3ccc(C)cc3)CC2)ccc1O`?
KCNQ2 enhance: 0.04; KCNQ2 enhance baseline: 0.85

How did CCN(CC)S(=O)(=O)c1ccc(-c2nnc(SCc3nnc(-c4ccccc4)o3)o2)cc1 do in these assays?
KCNQ2 enhance: 1.4; KCNQ2 enhance baseline: -0.24

Results for COC(=O)CN1C(=O)[C@H]2[C@@H](C3CC3)N3C(=O)CN(CCO)C(=O)[C@@]3(Cc3ccccc3)[C@H]2C1=O ?
KCNQ2 enhance: 0.37; KCNQ2 enhance baseline: 0.37

How did NC(=O)C1CCN(Cc2nnnn2Cc2ccco2)CC1 do in these assays?
KCNQ2 enhance: 0.99; KCNQ2 enhance baseline: 0.08

How did CCC(C)NC(=O)C1c2ccccc2Oc2ccccc21 (stereo unspecified) do in these assays?
KCNQ2 enhance: 0.29; KCNQ2 enhance baseline: 2

What do the screens show for `CCCNC(=O)C1CC(=O)N(c2ccc(OCc3ccc(Cl)cc3)cc2)C1` (stereo unspecified)?
KCNQ2 enhance: 1.9; KCNQ2 enhance baseline: 0.33

Results for Cc1oc2c(O)c(O)ccc2c(=O)c1-c1ccc(Cl)cc1 ?
KCNQ2 enhance: 0.06; KCNQ2 enhance baseline: 0.15

What do the screens show for `CCOC(=O)C1=C(C)N(CCCC(=O)O)C(=O)NC1c1ccc(C(F)(F)F)cc1` (stereo unspecified)?
KCNQ2 enhance: 0.24; KCNQ2 enhance baseline: 0.95

What do the screens show for `CCO[C@H]1OC(C(=O)NCc2ccccc2)=C[C@@H](C(C)(C)C)[C@@H]1CCCO`?
KCNQ2 enhance: 0.12; KCNQ2 enhance baseline: -0.14

What do the screens show for `O=c1[nH][nH]c(-c2ccccc2O)c1C(C[N+](=O)[O-])c1cccc(Cl)c1` (stereo unspecified)?
KCNQ2 enhance: 0.67; KCNQ2 enhance baseline: -1

Grouped by structure: the compounds so far with an NH in an aromatic ring
Results for COc1ccc(Nc2nc(C)cc(=O)[nH]2)c(OC)c1 ?
KCNQ2 enhance: 0.06; KCNQ2 enhance baseline: 1

What do the screens show for `CCOC(=O)C1C(c2ccc(OC)c(OC)c2)c2c([nH][nH]c2=O)CC1(C)O` (stereo unspecified)?
KCNQ2 enhance: 1.4; KCNQ2 enhance baseline: -0.56

What do the screens show for `Fc1ccc(/C=N/n2c(C3CCCCC3)n[nH]c2=S)cc1`?
KCNQ2 enhance: 2.3; KCNQ2 enhance baseline: -0.12

What do the screens show for `CC(C)c1nc2n[nH]c(N)c2c2c1CSC(C)(C)C2`?
KCNQ2 enhance: 5; KCNQ2 enhance baseline: -0.8

Results for CCCn1c(N)c(N(CCOC)C(=O)c2ccc(F)cc2)c(=O)[nH]c1=O ?
KCNQ2 enhance: 0.22; KCNQ2 enhance baseline: -1.9

Results for CCCCNC(=O)c1onc(CSc2nc3ccccc3[nH]2)c1C(=O)NCCCC ?
KCNQ2 enhance: 0.13; KCNQ2 enhance baseline: -2.5

What do the screens show for `O=c1[nH][nH]c(-c2ccccc2O)c1C(C[N+](=O)[O-])c1cccc(Cl)c1` (stereo unspecified)?
KCNQ2 enhance: 0.67; KCNQ2 enhance baseline: -1
